HSV replic up = enhancers of HSV replication in host cells, fold increase, host cell viability | HSV replication augmentation in cells | maximum fold increase | actives 0.005% (n = 220,000) | AID 1956, 2009;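 active = peak rise of 1.5-fold or more in the series; inconclusive = self-fluorescent or not available for retest; tested in PC3 cells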;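 also: first round at 10 µM; read as green reporter fluorescence; hits show the peak of a series up to 25 µM; 1 = signal of infected wells without compound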
Insulin prom inh = inhibitors of insulin promoter-driven GFP, primary screen, imaging, TRM-6 cells (human fetal islet line), eGFP reporter, cell count | reporter expression induced with tamoxifen | inhibition, % at 2 µM | actives 0.9% (n = 130,000);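 active = inhibition above the mean plus 3 SD, with well images judged a real hit on visual review, cut at about 60% in these data, passing the limit was not always enough; inconclusive = inhibition over the cutoff but images rejected on review; inactive = inhibition not above the cutoff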
RGS16-Gao = modulators of RGS16 binding to Galphao, primary screen, biochemical, human proteins, multiplexed bead flow cytometry; bead-based flow cytometry RGS16-Galphao binding, fluorescence; actives lie on both sides; actives 0.38% (n = 220,000); binding response (% of control), % at 10 µM;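 active = below 25% or above 175%, edge rows of some plates excepted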;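 also: Galphao activated by GDP with aluminum fluoride before binding; 100% = wells without compound and 0% = beads without RGS; some results beyond the cut were filed as inactive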
GALR2 agonist = GALR2 receptor agonists, primary screen, cell-based; activation, %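 (tested at 5 µM)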; GALR2-expressing cells, agonist activation read-out; actives 0.48% (n = 140,000); AID 803, 2007;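 active = above mean plus 3 SD of all compounds, about 5% in these data, not always enough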;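 also: 0% = vehicle buffer wells and 100% = reference agonist at full effect; tested in CHO reporter cells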
PKD1 inh = inhibitors of human PKD1 kinase, biochemical, fluorescence polarization; Serine/threonine-protein kinase D1 (Homo sapiens), Q15139; PKD1 kinase fluorescence polarization assay; inhibition, %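 (about 10 µM by stock and volumes)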; actives 0.056% (n = 200,000);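 active = inhibition of 50% or more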;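 also: controls were vehicle for no effect and a reference inhibitor for full effect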
Target sequence (Q15139 whole entry, looked up): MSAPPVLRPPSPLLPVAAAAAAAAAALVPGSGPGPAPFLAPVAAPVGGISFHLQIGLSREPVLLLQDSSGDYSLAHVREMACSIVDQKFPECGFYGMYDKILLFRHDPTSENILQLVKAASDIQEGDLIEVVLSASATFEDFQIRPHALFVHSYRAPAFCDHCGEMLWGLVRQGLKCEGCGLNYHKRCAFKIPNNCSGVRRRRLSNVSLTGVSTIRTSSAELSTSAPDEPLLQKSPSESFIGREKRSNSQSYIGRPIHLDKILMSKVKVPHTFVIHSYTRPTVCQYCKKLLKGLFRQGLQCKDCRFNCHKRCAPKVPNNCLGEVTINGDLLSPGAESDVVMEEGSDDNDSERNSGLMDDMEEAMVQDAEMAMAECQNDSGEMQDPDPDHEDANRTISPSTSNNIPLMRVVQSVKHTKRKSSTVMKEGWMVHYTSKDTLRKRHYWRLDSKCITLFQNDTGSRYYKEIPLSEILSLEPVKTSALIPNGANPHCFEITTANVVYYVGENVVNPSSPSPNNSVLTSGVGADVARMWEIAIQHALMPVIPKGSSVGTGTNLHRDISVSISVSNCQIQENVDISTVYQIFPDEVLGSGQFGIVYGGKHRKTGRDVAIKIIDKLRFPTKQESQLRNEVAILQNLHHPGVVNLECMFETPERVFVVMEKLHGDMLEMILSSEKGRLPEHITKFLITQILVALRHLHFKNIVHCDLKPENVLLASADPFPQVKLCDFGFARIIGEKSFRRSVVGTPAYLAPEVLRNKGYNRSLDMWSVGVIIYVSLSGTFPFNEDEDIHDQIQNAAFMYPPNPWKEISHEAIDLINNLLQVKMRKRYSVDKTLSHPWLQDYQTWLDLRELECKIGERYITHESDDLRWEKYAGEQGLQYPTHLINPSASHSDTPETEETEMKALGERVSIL
Insulin prom inh cell count = recorded beside Insulin prom inh, whose call it bears; normalized cell count, %; measured here: cell count, toxicity; reference of the scale not given here;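 cells exposed to compound for 48 h; stained nuclei by imaging scaled within each plate; lower means fewer cells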
HSV replic up primary fold = further read-out of HSV replic up, marked with its call; fold increase; compound at 10 µM; measured here: primary screen fold increase 10 uM; tested in PC3 cells;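 GFP signal in the first replicate; 1 = infected wells without compound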
* marks the source's active call; other numbers are inactive results; i = inactive; ? = inconclusive; nt = not tested or not shown; & = joins results of further samples. The list is partial (hit frequency here may not be typical).

SMILES	HSV replic up	HSV replic up primary fold	Insulin prom inh	Insulin prom inh cell count	RGS16-Gao	GALR2 agonist	PKD1 inh
CC(=O)N1CCC2(CC1)CC(=O)c1cc(OCC(=O)N3CCC4(CC3)OCCO4)ccc1O2	i	1	nt	nt	97	nt	-2
Cc1cc(N)n(C2CCN(C)CC2)n1	i	0.95	15	57	97	-1.8	10
CN1CCC(O)(c2ccc(Cl)cc2)C(C(=O)c2ccc(Cl)cc2)C1 (stereo not given)	i	0.93	-43	69	101	nt	-6
O=C(c1cnn2c(C(F)(F)F)cc(-c3ccccc3)nc12)N1CCC2(CC1)OCCO2	i	0.9	10	137	104	-2.8	3
CCOC(=O)N(C)c1ccc(C(O)(C(=O)OCC)C(F)(F)F)cc1 (stereo not given)	i	0.95	57	139	102	-1.8	-8
CC1CN=C(Nc2ccc(F)c(Cl)c2)S1 (stereo not given)	i	0.92	nt	nt	96	nt	nt
CC1CCCCN1Cc1ccc(Cl)nc1 (stereo not given)	i	0.91	-11	99	94	nt	-5
CC(C)NC(=O)c1ccc(N2CC3CC(C2)c2cccc(=O)n2C3)c([N+](=O)[O-])c1 (stereo not given)	i	0.95	0	125	99	nt	-2
CN1C(=O)C(=Cc2sc(=O)n(-c3ccccc3)c2N2CCCCC2)C(=O)N(C)C1=O	i	1.1	nt	nt	112	nt	nt
CCCn1c(C(=O)c2ccc(OC)cc2)nc2ccccc21	i	0.99	nt	nt	64	nt	-5
CCn1c(C(=O)N2CCC(C(=O)N3CCC4(CC3)OCCO4)CC2)cc2sccc21	i	0.78	nt	nt	104	0.1	-5
CCOc1c(P(=S)(N(C)C)N(C)C)c(C)nn1-c1ccccc1	i	1	-62	139	98	-1.8	-12
COCCNCCOc1ccc(C(C)(C)c2ccccc2)cc1	nt	nt	-108	101	86	1.0	1
CC(=O)Nc1nnc(CCN(CCc2nnc(NC(C)=O)s2)[N+](=O)[O-])s1	i	0.96	nt	nt	102	nt	nt
O=c1[nH]c2ccccc2n1CCCN1CCC(n2c(=O)[nH]c3cc(Cl)ccc32)CC1	nt	nt	-32	42	114	0.0	-9
C=Cn1ccnc1P(=S)(c1ccn(C)c1)c1nccn1C=C	i	1.2	-18	116	91	-0.8	-3
COCCOC(=O)C1=C(N)Oc2c(c(=O)oc3ccccc23)[C@@]12C(=O)Nc1ccccc12	i	1.1	nt	nt	102	nt	nt
CCOC(=O)c1sc(/N=C/c2c(O)n(-c3ccccc3)c(=O)[nH]c2=O)c(C#N)c1C	i	1.1	22	86	101	-1.2	-1
O=C(c1cc2c(s1)CCCCCC2)N1CCC2(CC1)OCCO2	i	0.95	-33	90	101	-1.7	-3
O=C(C[n+]1ccn(CCCNP2(=O)C=C(c3ccccc3)OC(c3ccccc3)=C2)c1)c1ccccc1	i	1	nt	nt	99	nt	-6
CC(=O)c1ccc(-c2ccccc2)cc1	i	1.1	17	73	79	-1.6	2
C=C(CO)CC1CC(O)[C@]2(C)OC3CC4OC5C[C@]6(C)O[C@]7(C)CCC8OC9C[C@]%10(C)OC%11C(C)=CC(=O)OC%11CC%10OC9C[C@@H](C)C8OC7CC6O[C@]5(C)C/C=C\C4OC3CC2O1 (stereo not given in full)	i	0.84	nt	nt	105	nt	1
O=C(CCl)Nc1nccs1	i	0.81	nt	nt	102	nt	nt
Cc1ccc2c(c1)C1CN(C)CCC1N2C(=O)Nc1cccc(C(F)(F)F)c1 (stereo not given)	i	1.3	58	59	102	-1.3	0
CCc1ccc(CN2CCN(C(=O)Cc3ccccc3)CC2)cc1	i	1	nt	nt	159	nt	-10
CCOC(=O)C1(CCc2ccccc2)CCN(Cc2cccc3cnccc23)CC1	i	1	nt	nt	100	nt	0
O=C(O)Cn1cc(C(=O)c2ccccc2)c2ccccc21	i	1	-15	142	105	-1.6	-3
O=P(Nc1ccccc1)(Nc1ccccc1)Oc1cccc(Cl)c1	i	0.78	nt	nt	107	-1.1	6
O=C(Nc1cccc2ccccc12)N1CCC2(CC1)OCCO2	i	1.1	nt	nt	101	nt	-3
O=C1NC(=O)N(Cc2ccccc2)C(=O)/C1=C\N1CCCc2ccccc21	nt	nt	nt	nt	103	-1.6	-3
O=C(Cc1ccccc1)N1CCN(C2CCCCCC2)CC1	i	1.1	nt	nt	106	nt	0
CCCNc1oc(-c2cccc3ccccc23)nc1C#N	i	0.88	nt	nt	102	3.0	-11
O=c1[nH]c(=O)n(Cc2ccco2)c(O)c1/C=N/N1CCCCCC1	i	0.96	-56	113	101	-0.1	1
CC(NC1CCCCC1)C(O)C12CC3CC(CC(C3)C1)C2 (stereo not given)	i	0.98	-45	99	65	19*	-4
O=C(Nc1ccc(C(F)(F)F)cc1)c1cccn(Cc2ccc3c(c2)OC(F)(F)O3)c1=O	i	1	-13	140	104	-3.1	4
O=[N+]([O-])c1ccc(N2CCCC2)c2ccncc12	i	0.8	42	146	105	nt	11
OC1(c2ccc(F)cc2)CC2CCC(C1)N2Cc1nnnn1C1CCCCC1 (stereo not given)	nt	nt	0	173	99	-2.8	2
CCN(CC)CCCN=C(C)c1c(O)n(C2CCCCC2)c(=O)[nH]c1=O	i	0.9	27	58	95	-2.7	-5
CC1Oc2cc3c(-c4c(O)cc(O)c5c(O)c6c(cc45)OC(C)C(C)C6=O)c(O)cc(O)c3c(O)c2C(=O)C1C (stereo not given)	i	0.97&0.92	nt	nt	15*	nt	nt
CC1CC2(O)c3no[n+]([O-])c3CCC2N1O (stereo not given)	i	0.96	-18	78	98	-2.0	-1
Cc1cc(C=C(C#N)C#N)ccc1N1CCCC1	i	0.99	nt	nt	96	nt	-2
CCN(CC)c1ccc(C=C2C(=O)NC(=S)NC2=O)cc1	i	1.1	nt	nt	101	nt	nt
CC1(C)C(=O)C=C[C@]2(C)[C@H]3CC[C@@]4(C)[C@H](c5ccoc5)OC(=O)[C@H]5O[C@]54[C@]3(C)[C@H](O)C[C@@H]12	nt	nt	40	121	105	-1.3	-8
COC(=O)c1ccccc1N=Cc1c(O)[nH]c(=S)[nH]c1=O	nt	nt	62	114	101	nt	0
O=C1NC(=O)C(CCc2ccncc2)(Cc2ccc(OCc3ccccc3)cc2)C(=O)N1	i	0.91	nt	nt	92	nt	nt
C(#CCN1CCOCC1)COCC#Cc1ccccc1	i	0.93	-79	79	92	-1.3	-11
Cn1c(O)c(/C=C2\N=c3ccccc3=C2CCNC(=S)NC2CC2)c(=O)n(C)c1=O	i	1.1	nt	nt	77	nt	nt
FC(F)(F)c1ccc2c(c1)NP(=S)(N1CCOCC1)c1nccn1-2 (stereo not given)	i	1	nt	nt	105	-1.0	0

4 consecutive entries out of the list so far, for reference:
SMILES	HSV replic up	HSV replic up primary fold	Insulin prom inh	Insulin prom inh cell count	RGS16-Gao	GALR2 agonist	PKD1 inh
CC(=O)N1CCC2(CC1)CC(=O)c1cc(OCC(=O)N3CCC4(CC3)OCCO4)ccc1O2	i	1	nt	nt	97	nt	-2
Cc1cc(N)n(C2CCN(C)CC2)n1	i	0.95	15	57	97	-1.8	10
CN1CCC(O)(c2ccc(Cl)cc2)C(C(=O)c2ccc(Cl)cc2)C1 (stereo not given)	i	0.93	-43	69	101	nt	-6
O=C(c1cnn2c(C(F)(F)F)cc(-c3ccccc3)nc12)N1CCC2(CC1)OCCO2	i	0.9	10	137	104	-2.8	3

Remaining list, next part:
SMILES	HSV replic up	HSV replic up primary fold	Insulin prom inh	Insulin prom inh cell count	RGS16-Gao	GALR2 agonist	PKD1 inh
CC1(C)CN=C(Nc2ccccc2C(F)(F)F)S1	i	0.85	nt	nt	107	0.6	-3
CCOC(=O)c1cc(C)n(CCc2cnc[nH]2)c1C	i	0.82	nt	nt	104	-0.6	-9
COc1ccc2c(c1O)[C@]13CCN(C)[C@H](C2)[C@@H]1CCC(=O)C3	i	1	nt	nt	124	nt	nt
CC1(C)CC(=O)C(C=NCCN2CCN(C(=O)Cc3ccccc3)CC2)=C(O)C1	i	1.1	6	92	117	-1.9	4
CCCCCn1c(N)c(C(=O)NCCN2CCOCC2)c2nc3ccccc3nc21	i	0.79	-22	56	103	5.7	-8
CN1C(=O)N(C)C(=O)C(CCc2ccccn2)(CCc2ccccn2)C1=O	i	1	nt	nt	105	-0.3	-4
c1cc(CCN2CCCC2)ccn1	i	1.1	nt	nt	108	nt	nt
O=CC(Cl)P(=O)(N1CCOCC1)N1CCOCC1 (stereo not given)	i	0.89	nt	nt	105	nt	nt
COc1cccc(N2C(=O)NC(=O)/C(=C/c3ccc4c5c(cccc35)CC4)C2=O)c1	i	1.2	25	96	97	-0.8	5
CCOc1cc(/C=C2\C(=O)NC(=O)N(CCc3ccc(F)cc3)C2=O)ccc1O	nt	nt	nt	nt	97	nt	nt
COc1cc(/C=C2\C(=O)NC(=O)N(CCc3ccc(F)cc3)C2=O)ccc1O	i	1	nt	nt	99	-0.3	2
O=[N+]([O-])c1ccc(C2C3C(c4ccccc4)=NC4(CCCCC4)N32)cc1 (stereo not given)	i	1	5	112	100	-1.3	-10
Fc1ccccc1CNC1CN2CCC1CC2 (stereo not given)	i	1.1	-27	110	112	nt	-1
CN1CCN(c2ccc(/C=C3\C(=O)NC(=S)N(c4cccc(Br)c4)C3=O)o2)CC1	?	nt	-213	41	104	-0.2	-14
C[C@H]1OC[C@@H](C[N+](C)(C)C)O1	i	0.74	14	87	106	-1.1	1
CCOC(=O)C(O)(c1ccc(N(CC)C(=O)OC)cc1)C(F)(F)F (stereo not given)	i	0.95	-31	94	105	-2.1	-12
CN(C)CCN=Cc1c(O)n(Cc2ccco2)c(=O)[nH]c1=O	i	1	18	60	112	-1.1	-7
O=C1NC(c2cc3ccccc3nc2Cl)Nc2ccccc21 (stereo not given)	i	0.85	-8	113	110	0.9	-6
CNC(=O)O/N=C/c1nn(C(=O)C(C)(C)C)cc1Br	i	1	nt	nt	105	nt	nt
CCNc1ccc(P(=S)(N(C)C)N(C)C)cc1	i	0.72	-72	46	85	-1.4	-9
CN(C/N=C(\N)N[N+](=O)[O-])S(=O)(=O)c1ccccc1	i	1	15	172	107	nt	-5
Fc1ccc(Cn2nnnc2C(c2ccc(F)cc2)N2CC=C(c3ccc(F)cc3)CC2)cc1 (stereo not given)	i	0.93	-13	127	97	-0.3	-14
COc1ccc(/C=C/C(=O)c2c(O)n(CCC3=CCCCC3)c(=O)[nH]c2=O)cc1	i	1.1	nt	nt	176	0.2	-4
Cc1ccsc1C(=O)C1CCCN(Cc2cnc(N(C)C)s2)C1 (stereo not given)	i	0.91	nt	nt	108	nt	-2
O=C(Nc1nccs1)c1c(O)c2c(n(Cc3ccco3)c1=O)CCCC2	i	1.2	nt	nt	101	nt	nt
O=S1(=O)CC2(N3CCOCC3)CCCCCCC21 (stereo not given)	i	1	nt	nt	100	0.1	-3
O=C1C2CCCN2C(c2cccnc2)N1c1nccs1 (stereo not given)	nt	nt	nt	nt	57	-3.2	-17
CN(C)C(=O)Oc1ccnc2cc(Cl)ccc12	i	0.99	nt	nt	94	nt	-9
CCOC(=O)C1C(=O)NC2(C)CC1c1cc(OC)ccc1O2 (stereo not given)	i	0.92	-6	69	102	-0.6	-12
Cc1ccnc(-n2c(C)cc(C=C3C(=O)N(C)C(=S)N(C)C3=O)c2C)c1	i	1.3	nt	nt	99	-2.1	5
CCOC(=O)C1=C(C)OC(N)=C(C(=O)OC)C12C(=O)Nc1ccc(Br)cc12 (stereo not given)	i	0.98	nt	nt	77	-2.9	-8
COc1ccc(/C=C/C2=CCN(C)CC2)cc1	i	0.94	nt	nt	111	nt	-6
CCCCCCN1CCN(c2ccc(Cl)cc2)CC1	i	0.89	nt	nt	103	nt	-4
O=c1[nH]c(=S)n(C2CC2)c(O)c1C=Nc1ccc2c(c1)OCO2	i	0.95	nt	nt	98	nt	nt
CCc1ccc(C(=O)C23CN4CN(CN(C4)C2)C3)cc1	i	1.1	-29	135	101	-2.0	-7
CCN1CCN(Cc2ccc(C)cc2C)CC1	i	0.94	4	76	91	-1.4	-1
COc1ccc(CN2CC3CC(C2)c2cccc(=O)n2C3)cc1OC (stereo not given)	i	1	nt	nt	104	-2.2	-15
O=c1[nH]c(=S)n(C2CC2)c(O)c1C=NCC1CCCO1 (stereo not given)	i	0.99	nt	nt	91	nt	nt
Cn1c(O)c(C(=O)c2ccccc2)c(=O)n(C)c1=O	i	0.93	-8	131	100	-2.4	-2
Cc1cccc(C)c1NC(=O)CN(C)CC(=O)Nc1ccc(C#N)c(Cl)c1	i	0.93	11	175	118	-1.0	-9
C[C@H]1CCC[C@@H](O)CCC/C=C/c2cc(O)cc(O)c2C(=O)O1	i	1.1	60	130	104	-3.5	-26
